Source: PubChem (National Center for Advancing Translational Sciences (NCATS))
HSD17B inhib: HSD17B dehydrogenase inhibition; recombinant HSD17B10, NADH fluorescence kinetic; many of its hits are not listed in these tables; Potency, µM (doses to about 57.1 µM), inactives show at the highest dose activity change, negative = inhibition, hits mostly inhibitors; 7.6% of 75,000 active; active = well fitted inhibition curve with a large enough effect; inconclusive = small, poorly fitted or top-dose-only effect; inactive = no such curve, though single readings can be large or run the other way;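 also: the protocol describes HADH2 (HSD17B10) and not the HSD17B4 of the title; nearly all actives have a fitted effect of over 70% in size; most hits overshoot -100% by far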
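His-tagged E. coli-expressed HADH2 at 20 nM in 100 mM Tris-HCl pH 9.0 with 0.01 % Tween-20, preincubated 15 min with compound at room temperature. Reaction with 1 mM NAD+ and 90 uM beta-hydroxybutyryl coenzyme A; NADH fluorescence (360/450 nm) read kinetically over 4 min, last minus first point.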
* = called active by the depositor; i = inactive; u = inconclusive; [ ] = another dose, or the depositor's remark. % is scaled to controls: 0 for no effect and ±100 for the full control effect; potency is read from the fitted curve at half-maximal effect.

SMILES | HSD17B inhib
CC(=O)c1c(C)[nH]c(C(=O)Nc2ccc3c(c2)OCCO3)c1C | -3%
CCSc1nnc(NC(=O)c2csc3c2CCCC3)s1 | u
Cc1ccc(-c2cccc(NC(=O)C3C(C(=O)O)[C@@H]4C=C[C@H]3C4)c2)o1 (stereo partly drawn) | 20µM*
COc1cccc(/C=N/n2c(C)nc3ccccc32)c1OC | -3%
CCOC(=O)NCc1ccc(CNC(=O)OCC)cc1 | 2%
BrC/C=C/CBr | -6%
CCCc1c(C)c2ccc(OCC(C)=O)cc2oc1=O | 16µM*
Cc1cccc(CNc2cc(-c3ccccc3C)ncn2)c1 | -22%
NC(=O)NC(Cc1ccccc1)c1ccccc1 (stereo not drawn) | -8%
COc1ccc(OC)c(NC(=O)c2nnn(Cc3ccccc3C)c2N)c1 | u
CC1(C)CCCC2(C)C3C(O)CC2(C)C(O)C31 (stereo not drawn) | 4%
CCOC(=O)c1c(CN2CCCCC2)oc2ccc(O)cc12 | 1%

Reprinted from the part before: seven compounds, followed by the next part.
SMILES | HSD17B inhib
BrC/C=C/CBr | -6%
CCCc1c(C)c2ccc(OCC(C)=O)cc2oc1=O | 16µM*
Cc1cccc(CNc2cc(-c3ccccc3C)ncn2)c1 | -22%
NC(=O)NC(Cc1ccccc1)c1ccccc1 (stereo not drawn) | -8%
COc1ccc(OC)c(NC(=O)c2nnn(Cc3ccccc3C)c2N)c1 | u
CC1(C)CCCC2(C)C3C(O)CC2(C)C(O)C31 (stereo not drawn) | 4%
CCOC(=O)c1c(CN2CCCCC2)oc2ccc(O)cc12 | 1%
CC(=O)Nc1ccc2c(c1)nc(CCNC(=O)c1ccccc1)n2C | 8%
COc1ccc(C(=O)CSc2nnc(-c3cc(C)cc(C)c3)o2)cc1 | -3%
CCCCn1c(/N=C/c2cc(OC)ccc2O)nc2ccccc21 | 6%
CC(Oc1ccc(O)cc1)(P(=O)(O)O)P(=O)(O)O | -3%
CCn1cc2c(c1-c1cccc(C)c1)c(=O)n(C)c(=O)n2C | -1%
COc1ccc(-n2nnc3c(SCC(=O)OCc4ccccc4)ncnc32)cc1 | 2%
COc1ccc(CCNC(=O)CSc2nc(O)c(CC(C)C)c(=O)[nH]2)cc1OC | 4%
COc1cccc2c(=O)cc(C)n(CC(=O)Nc3ccc(C)c(C)c3)c12 | -27%
COC(=O)c1ccccc1NC(=O)C1CCCN(S(=O)(=O)c2ccc(OC)cc2)C1 (stereo not drawn) | u
CCOC(=O)c1cc(-c2ccc(F)cc2)n(CC(=O)Nc2nccs2)c1C | -6%
Cn1c(=O)c(CCc2ccccc2)nc2cncnc21 | -2%
Nc1ncnc2c1ncn2C[C@@H](O)C(=O)O | 2%[11.4 µM]
CCOC(=O)N1CCC(Nc2c(Nc3ccc(C)c(C)c3)c(=O)c2=O)CC1 | -2%
Cc1ccc(F)c(NC=C2C(=O)OC(C)(C)OC2=O)c1 | 74%[activator]
COc1cccc(N2CCN(Cc3nc4ccccc4c(=O)[nH]3)CC2)c1 | -2%
C=CCN=C(CC)C1=C(O)CCCC1=O | 1%
COCCn1c(=S)[nH]c2cc(C(=O)NCCCN3CCOCC3)ccc2c1=O | -7%
Fc1ccc(CNc2nc(-c3ccco3)cc(C(F)(F)F)n2)cc1 | 25µM*
COCCn1cnc2cc(C)c(C)cc21 | -3%
COc1ccc(CNc2ncncc2-c2ccccc2Cl)c(OC)c1 | -13%
O=C(Nc1nc2n(n1)C(c1ccc(Cl)cc1)CC(c1ccc(Cl)cc1)N2)c1ccco1 (stereo not drawn) | u
COc1ccccc1-c1ccc(=O)n(CC(=O)Nc2ccc(C(=O)N3CCCC3)cc2)n1 | -1%
COc1ccc(-c2noc(CN(C)S(=O)(=O)c3ccccc3)n2)cc1OC | 7%
O=C(O)c1cccc(CSc2nnc(COc3ccccc3)o2)c1 | -3%
CC1(C)Cc2ccccc2C(Nn2cnnc2)=N1 | -2%
CS(=O)(=O)N(Cc1ccc(F)cc1)Cc1nc2ccccc2c(=O)[nH]1 | -15%
Cc1ccc(-n2c(SCC(=O)Nc3ccc4c(c3)OCCO4)nnc2-c2ccco2)cc1 | 1%
Nc1ncnc2[nH]c(=O)[nH]c12 | -1%
CCc1nnc(NC(=O)CSc2nnc(C3CCCCC3)n2-c2ccccc2)s1 | 4%
O=C(CSc1nnc(Cc2cc(=O)[nH]c(=O)[nH]2)n1-c1ccccc1)N1CCCCC1 | 7%
CCOC(=O)C1CCN(C(=O)COc2ccc(S(=O)(=O)NC(C)(C)C)cc2)CC1 | -1%
O=C1CCCc2sccc2N1 | 4%
CO[C@@H]1COC(=O)[C@H]2CCCN2C(=O)[C@@H](C)COC(=O)[C@H](COCc2ccccc2)NC(=O)C/C=C\[C@H]1C | 1%[11.4 µM]
NCCSC[C@H](N)C(=O)O | 2%[11.4 µM]
O=C(O)CCSc1nc2ccccc2n1CCOc1ccccc1 | 4%
O=C1CCCC2=C1C1(O)C(=O)c3ccccc3C1(O)O2 (stereo not drawn) | 6%
CCOCCCN1C(=O)CN(C2CCCCC2)C(=O)C1c1ccc(OCC)c(OC)c1 (stereo not drawn) | -4%
O=C(CC12CC3CC(CC(C3)C1)C2)NCCN1CCOCC1 | 3%
O=S(=O)(O)c1nc2ccccc2n1Cc1ccc(Cl)cc1 | -2%
COc1ccccc1N1C(=O)N(C(C)=O)C2C1Nc1ccccc1N2C (stereo not drawn) | -2%
CC1(C)CC(=O)c2c(oc3cc(O)c(O)cc23)C1 | u
O=C(O)CSc1ccc([N+](=O)[O-])cc1[N+](=O)[O-] | 6%[11.4 µM]
N#CC1=C(SCc2ccccc2)NC(=O)CC1c1ccco1 (stereo not drawn) | -6%
CCC(C)(C)OC | 0%
CC(NC(=O)c1cc2ccccc2o1)C(=O)O (stereo not drawn) | 3%
Cc1ccc(-c2cn3cccnc3n2)cc1NC(=O)c1ccc(Br)o1 | 25µM*
CCOC(=O)N1CCN(C(=O)CN(c2ccc(OCc3ccccc3)cc2)S(C)(=O)=O)CC1 | 8%
Cc1cc(C)n2nc(SCC(=O)c3ccccc3)nc2n1 | -1%
CCOC(=O)N1CCC(NC(=O)CN2C(=O)C(CC)Oc3ccc(C)cc32)CC1 (stereo not drawn) | 6%
O=C(Nc1ncnc2sc3c(c12)CCC3)c1ccco1 | -16%
CCN(CC)C(=O)c1ccc(COc2ccccc2Br)o1 | -15%
O=S(=O)(NCC1CCCO1)c1ccc2c(c1)OCCO2 (stereo not drawn) | 1%
CCOC(=O)Nc1ccc2c(c1)Nc1ccccc1S2 | -8%
CCOc1ccc(-n2c(Cc3cc(=O)[nH]c(=O)[nH]3)nnc2SCC(N)=O)cc1 | -17%
COc1cc(C(=O)NCCC(=O)NC2CCCCCCC2)cc(OC)c1OC | -2%
CC(=O)Nc1cn(C(C)=O)c(C)n1 | -4%
Cc1ccc(/C(O)=C2\C(=O)C(=O)N(CC(C)O)C2c2ccc(N(C)C)cc2)cc1 (stereo not drawn) | 8%
Brc1cccc(-c2nnc3n2CCCCC3)c1 | 12%
CC1CCCCN1S(=O)(=O)c1ccc2c(c1)CCN2C(=O)CCC(=O)O (stereo not drawn) | 9%
CCCc1nc(N)nc2c1C(=O)CC(C)(C)C2 | 3%

(listing goes on)
SMILES | HSD17B inhib
CCOC(=O)c1c(C)[nH]c(C(=O)CSc2nnc(CC(C)c3ccccc3)o2)c1C (stereo not drawn) | 7%
COCCn1c(C)cc(C(=O)CSc2nnc3scc(-c4ccc(Cl)cc4)n23)c1C | 7%
CN(C)c1cc(-c2ccccc2)nc(N)n1 | -9%
COc1cccc(N2CCN(C(=O)CCn3c(=S)[nH]c4cc5c(cc4c3=O)OCO5)CC2)c1 | 2%
O=C(Cn1nnc(-c2cccc(C(F)(F)F)c2)n1)NC(=O)NCc1ccco1 | -3%
COC(=O)c1cc(C(=O)OC)cc(S(=O)(=O)Nc2ccc(Cl)c(N)c2)c1 | -14%
CN(C(=O)CSc1ncccc1C(=O)O)c1ccccc1 | -1%
CCCCCc1nnc(NC(=O)C2CCCO2)s1 (stereo not drawn) | -6%
O=C(Cn1ncc2c(=O)oc3ccccc3c21)NCC1COc2ccccc2O1 (stereo not drawn) | -5%
COc1ccc(CSc2nc(C)cc(=O)[nH]2)cc1 | 6%
Cc1nc2ccc3nc(NC(=O)c4ccc(S(=O)(=O)N5CCOCC5)cc4)sc3c2s1 | -5%
Cc1cc(Br)c(S(=O)(=O)n2nnc3ccccc32)cc1C | 20%
COc1ccc(S(=O)(=O)N2CCC(NC(=O)Nc3ccc(C)cc3)CC2)cc1 | -4%
O=C(c1cccc(F)c1)N1CCN(C(=O)c2cc(-c3ccc(Cl)cc3Cl)on2)CC1 | u
COc1cc(C)c(Br)cc1S(=O)(=O)N1CCCC1 | 0%
O=C(COc1ccccc1)NC(Cc1c[nH]c2ccccc12)C(=O)O (stereo not drawn) | -11%
Cc1[nH]nc2c1C(c1ccccc1F)CC(=O)N2 (stereo not drawn) | 7%
CCn1cc(NC(=O)Nc2ccccc2C(=O)OC)c(C(N)=O)n1 | -12%
COc1ccc(OC(C)C(=O)NC2CC(C)(C)NC(C)(C)C2)cc1 (stereo not drawn) | 4%
Cc1cnc(C(=O)Nc2ccc3c(c2)CCC3)cn1 | -1%
COc1ccc(-n2c(SCC(=O)NCC3CCCO3)nc3n[nH]c(C)c3c2=N)cc1 (stereo not drawn) | 0%
CCOC(=O)C1=C(C)NC(SCC(=O)Nc2cc(C)on2)=C(C#N)C1c1cccs1 (stereo not drawn) | i
Cc1ccc(-c2nnn(CC(=O)NC3CC4CCC3C4)n2)cc1 (stereo not drawn) | 17%
COc1cccc(C(=O)N2CCN=C2SCc2cccnc2)c1OC | 5%
Cn1c(Cn2c(=O)sc3ccccc32)nnc1SCC(=O)NCc1ccccc1Cl | 5%
Cn1c(=O)c2c(nc(N3CCCCCC3)n2CC(=O)c2ccccc2)n(C)c1=O | -3%
CCCCn1c(=N)n(CC(O)COc2ccc(C)cc2)c2ccccc21 (stereo not drawn) | -8%
Cc1ccc(SC(C)c2nc(-c3cccnc3)no2)cc1 (stereo not drawn) | -4%
OC(CCl)CCl | -2%
CC(C)Cn1cc(C(=O)NCCCN2CCCC2=O)c2c3ccccc3n(C)c2c1=O | 25µM*
Cc1ccccc1NS(=O)(=O)c1cc(C(N)=O)ccc1C | 2%
COc1ccccc1CN1CC(C(=O)N2CCN(c3ccc(F)cc3)CC2)CC1=O (stereo not drawn) | -2%
Cc1nn(-c2nc3ccccc3n2Cc2ccccc2)c2c1C(=O)CC(C)(C)C2 | u
CCOC(=O)c1sc(=N)n(-c2ccc(OC)cc2)c1C | -10%
CCOC(=O)c1cc(-c2ccco2)nc2c1c(C)nn2-c1ccccc1 | u
COc1cccc(C(=O)CN2CCC(NC(=O)NC3CCCCC3)CC2)c1 | -6%
CCn1c(COc2cccc(C)c2)nnc1SCC(=O)N1CCCC1 | -3%
CCCN1CCN(C(=O)c2cn(CC(C)C)c(=O)c3cc(OC)c(OC)cc23)CC1 | -16%
CC(=O)c1c(C)nc2ccc(Br)cc2c1C(=O)O | -1%
COc1ccccc1C(=O)NCCn1cc(SCC(=O)NCc2ccco2)c2ccccc21 | -14%
C=CCn1c(=O)c(C(=O)Nc2ccccc2OC)c(O)c2ccccc21 | -1%
COc1nc(C#N)nc(N(C)C)n1 | 1%
CC(C)CCSc1nc(N)c(C#N)cc1C#N | 13µM*
CSc1ccccc1NC(=O)c1ccc(C)o1 | -3%
CC(C)(Oc1cccc2ccccc12)C(=O)O | u
Cc1ccc(-n2nc3c(c2NC(=O)c2cccs2)CSC3)cc1 | u
Cc1ccc(S(=O)(=O)N(C)c2ccc(OCC(=O)OCc3c(C)noc3C)cc2)cc1 | 5%
CC(C)(C)OC(=O)N[C@@H](Cc1c[nH]c2ccccc12)c1nnc(SCC(N)=O)o1 | -3%
Cc1cccc(Nc2nc(N)nc(CN3CCN(C)CC3)n2)c1 | 3%
CCOc1cc2[nH]c(=O)n(CCC(=O)NCCc3ccccc3)c(=O)c2cc1OCC | u
O=C(CN(C1CCCCC1)S(=O)(=O)c1ccccc1)N1CCCC1 | 13%
CCOc1nc(-c2ccccc2O)nc2ccccc12 | 0%
CCCn1c(SCC(=O)NC)nnc1C(C)C | 19%
CO/N=C\c1ccc(C(=O)N2[C@H](c3ccc(C)cc3)[C@@H](C)CC[C@H]2C(=O)OC)cc1 | -2%[11.4 µM]
COc1ccccc1-c1nc(S(=O)(=O)c2ccc(Cl)cc2)c(N(C)C)o1 | 3%
O=C(COC(=O)c1ccccc1Oc1ccccc1)NC1CCS(=O)(=O)C1 (stereo not drawn) | 17%

Pulled one by one from the entries so far, 3 records:
SMILES | HSD17B inhib
CCOc1nc(-c2ccccc2O)nc2ccccc12 | 0%
O=C(COC(=O)c1ccccc1Oc1ccccc1)NC1CCS(=O)(=O)C1 (stereo not drawn) | 17%
Cc1cccc(Nc2nc(N)nc(CN3CCN(C)CC3)n2)c1 | 3%

This is a subset; count on the stated rates, not on these rows.
